# Bioassay records (PubChem)
# MgrA-DNA mod: modulators of Staphylococcus aureus MgrA DNA binding. fluorescence polarization. inhibition, %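 (about 10 µg/mL by stock and volumes)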. actives 0.13% (n = 84,000);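 active = above 50% in either of two replicates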;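 also: 0% = protein plus DNA without compound and 100% = DNA alone without protein; higher means less MgrA bound to DNA so lower polarization; one replicate is shown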
# Sa helicase inh: S. aureus DNA helicase inhibition. AID 485395. inhibition, %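 (tested at about 80 µM)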. purified S. aureus helicase, fluorescence unwinding assay; about half of the hits fall short of the stated cut. actives 0.05% (n = 120,000);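 active = both duplicates at 50% or more, or one of them with a favoured structure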;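 also: 0% = mean of negative control wells and 100% = mean of positive control wells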
# * marks the source's active call; other numbers are inactive results; . = not tested or not shown; & = joins results of further samples. A portion of the library; count on the stated rates, not on these rows.
# The line under a structure holds: MgrA-DNA mod | Sa helicase inh
COc1cc(/C=N/NC(=O)c2cc(-c3cccn3C)n[nH]2)cc(OC)c1OC
→ . | 32
CN(Cc1ccccc1)C(=O)c1cc2c(s1)-c1ccccc1OC2
→ 0.6 | 10
O=C(c1cnn(C(=O)C2CC2)c1)c1cc(Cl)ccc1O
→ 3.3 | 5
Cc1ccc(C)c(OC(=O)CCN2C(=O)C3CC=CCC3C2=O)c1C (centres undefined)
→ . | -4
N#CC1C(c2ccccc2F)C(C(N)=O)C(=O)NC1(O)c1ccccc1 (centres undefined)
→ -0.2 | 8
CC(/C=N/N=C1\SC(CC(=O)Nc2ccc(Cl)cc2)C(=O)N1Cc1ccco1)=C\c1ccccc1 (centres undefined)
→ . | 5
CC1C=CCC2C(=O)N(c3cccc(C(=O)O)c3)C(=O)C12 (centres undefined)
→ . | -7
O=C(CN1C(=O)c2cccc3cccc1c23)N/N=C/c1ccncc1
→ . | 9
O=C(Nc1n[nH]c(C(F)(F)F)n1)c1ccco1
→ -0.3 | 15&11
Cc1ccc(C(=O)Cn2c(=N)sc3cc(C)ccc32)cc1
→ . | 1
CCc1ccccc1NC(=O)Cn1c(=O)n(Cc2ccc3c(c2)OCO3)c(=O)c2ccccc21
→ . | 6
Cc1noc(C)c1COC(=O)c1cccc(S(=O)(=O)N(C)C2CCCCC2)c1
→ . | -11
CCn1c(=O)cc(SCC(=O)NCCN2CCN(Cc3ccccc3)CC2)c2ccccc21
→ 2.0 | -7
CN(C)Cc1cc(CN(C)C)c(O)c(CN(C)C)c1
→ . | 21
COc1ccc(N2CCN(C(=O)c3csc4c3CCCCC4)CC2)cc1
→ . | -8

# New compounds follow:
# The line under a structure holds: MgrA-DNA mod | Sa helicase inh
Cn1c(SCC(=O)NCc2ccc(Cl)cc2)nnc1-c1ccc(Cl)cc1
→ -0.2 | 11
O=C(CN1C(=O)/C(=C\c2ccccc2)Oc2ccccc21)NC1CCCCC1
→ -2.0 | -1
O=C(O)CC1SC(N2CCCC2)=NC1=O (centres undefined)
→ -3.9 | -3
CCOC(=O)c1cc(-c2ccc(S(=O)(=O)N(C)CC3COc4ccccc4O3)s2)on1 (centres undefined)
→ . | 6
Cc1occc1C(=O)Nc1cccc(-c2nn[nH]n2)c1
→ 26 | 10
COc1cccc(-c2cc(C(=O)NC3CCCC3)on2)c1
→ . | 23
Cc1sc2ncnc(-n3nnc4ccccc43)c2c1C
→ . | 16
COCCN1CSC(=S)N(Cc2ccco2)C1
→ . | 9
O=C(O)C1CCCN(S(=O)(=O)c2ccc(-c3ccc(=O)[nH]n3)s2)C1 (centres undefined)
→ . | 9
O=C(Cn1cc(C(F)(F)F)cc(Cl)c1=O)NC1CC1
→ . | 12
Nc1cc(C(F)(F)F)ccc1Oc1ccc(Br)cc1
→ 2.6 | 22
Cn1c(SCc2nc3sc4c(c3c(=O)[nH]2)CCCC4)nnc1C(F)(F)F
→ . | -21
CC(/C=C1\SC(=S)N(CCC(=O)N2CCN(C)CC2)C1=O)=C\c1ccccc1
→ 2.2 | -6
Cc1cc(C)c2c(=O)n(CC(=O)N3CCCCC3)sc2n1
→ . | 8
CCOC(=O)N1CCC2(CC1)C(C#N)=C(C)Nc1oc(C)nc12
→ -1.0 | 16

# Next entries follow:
# The line under a structure holds: MgrA-DNA mod | Sa helicase inh
O=C(N=C1N=C2C=CC=CN2Cc2ccccc21)c1ccncc1
→ . | 21
CN(C(=O)c1snc2ccc(Cl)cc12)c1ccccc1
→ 3.4 | 5
Brc1ccc2c(c1)OCCOCCOCCO2
→ . | 15
COc1ccc(-c2nnc(NC(C)=O)o2)cc1
→ . | 25
O=C(C1COc2ccccc2O1)N(CC1CCCO1)c1nc2ccccc2s1 (centres undefined)
→ . | -8
CN1C(=S)Cc2cc(Br)ccc21
→ . | 2
CCCCn1c(SCC)nc2cc(S(N)(=O)=O)ccc21
→ . | -8
CCn1c(-c2ccc3c(c2)OCCO3)cnc1SCc1nc(-c2ccccc2)no1
→ . | -6
COc1ccc(CNc2ccc(C)c(C)c2)cc1OC
→ -0.5 | -5
CC(NS(=O)(=O)/C=C/c1ccccc1)C(=O)O (centres undefined)
→ . | -2
CN(C)CCn1c(C(=O)Nc2ccccc2)cc2ccccc21
→ . | 11
CC1CCN(C(=O)CCCOc2ccc(Cl)cc2)CC1
→ 0.5 | 5
c1ccc(Nc2nc3c(ccc4ccccc43)s2)cc1
→ -5.2 | 3
COc1cc(C)c(NS(=O)(=O)c2cccs2)cc1OC
→ . | 9
Cc1cc(NC(=O)/C=C/c2ccco2)n(-c2nc3ccccc3n2Cc2cccc(Oc3ccccc3)c2)n1
→ . | -3

# Further results
# The line under a structure holds: MgrA-DNA mod | Sa helicase inh
Cc1cc(C(=O)Nc2sc3c(c2C(N)=O)CCCC3)on1
→ 3.2 | 13
COc1ccc(-c2cc3nc(C)c(CCC(=O)NC(C)CCc4ccco4)c(C)n3n2)c(OC)c1 (centres undefined)
→ . | -6
CCNc1nc(-c2ccc(NC(=O)CC)cc2)cs1
→ . | -12
Cc1ccc(C(=O)Nc2ccccn2)cc1
→ -1.3 | 0
Cc1cc(C2CCCCC2)n(O)c(=O)c1
→ 2.2&3.8 | .
COc1ccc(-c2nc(C#N)c(NC3CCCCC3)o2)cc1
→ . | -27
CCOC(=O)c1cc(-c2ccccc2)n(CC(=O)O)c1C
→ -2.0 | 13
COc1cc(OC)cc(C(=O)n2nc(C)cc2C)c1
→ 2.7 | 12
O=C(Nc1ccc2nsnc2c1)c1ccccc1
→ . | 8
Cc1ccc(C)n1-c1ccc(C(=O)OCC(=O)N2CCCC2)cc1
→ . | 11
O=C(Nc1ccc(NC(=S)Nc2cccc(Cl)c2Cl)cc1)c1ccccc1O
→ -0.1 | .
O=C(c1ccco1)N1CCNCC1
→ . | 11
CCOC=C1C(=O)c2ccccc2C1=O
→ 2.9 | 11
Cc1cc2nc(Oc3ccccc3)c3ccccc3n2n1
→ . | -1
Cc1ccc(NC(=O)/C=C2/SC(=O)N(CN3CCCCC3)C2=O)cc1
→ 2.9 | -2

# Continued.
# The line under a structure holds: MgrA-DNA mod | Sa helicase inh
CN1CCCc2cc(CN)ccc21
→ 63* | -3
Cc1c(C(=O)O)nnn1-c1ccccc1
→ -1.8 | 3
Cc1cc(C)c(NC(=S)NCCCN2CCOCC2)c(C)c1
→ -1.0 | .
C/C(=N\O)C(=O)c1ccc(-c2ccccc2F)cc1
→ -0.8 | .
CC(C)C(=O)N1N=C2CCCCC2C1(O)C(F)(F)F (centres undefined)
→ 0.7 | -13
C=C1C(C(=O)NCC2CCCO2)C1C(=O)NCC1CCCO1 (centres undefined)
→ 1.6 | -8
Cc1ccc(N2C(=O)c3ccc(-c4nc5ccccc5o4)cc3C2=O)cc1C
→ 0.8 | 15
Cc1ccc(CNC(=O)c2n[nH]c3c2CCCC3)cc1
→ . | -14
CCSc1nc2ccccc2c(=O)n1C1CCCC1
→ 2.1 | 10
CC(C)(CO)NC(=O)C12CC3CC(CC(Cl)(C3)C1)C2
→ 0.0 | 10
O=C(COc1ccccc1)Nc1ncc2c(n1)CCCC2=O
→ -1.6 | 9
O=C1NC2(CCCCC2)C(=O)N1CN1CCCC1c1ccc2c(c1)OCCCO2 (centres undefined)
→ . | 9
CN(C1CCCCC1)S(=O)(=O)N1CCCC(C(=O)NCCCc2ccccc2)C1 (centres undefined)
→ . | -31
O=C(O)c1ccccc1-c1ccccc1C(=O)Nc1c[nH]c(=O)[nH]c1=O
→ . | 7
Cc1nc(C)nc(N(Cc2ccccc2Cl)Cc2ccccc2Cl)n1
→ -2.6 | .

# Continuation:
# The line under a structure holds: MgrA-DNA mod | Sa helicase inh
COc1ccc(C2Nc3nc4ccccc4n3C(N)=C2C#N)cc1 (centres undefined)
→ -2.5 | 9
Cc1ccccc1NC(=O)C1(N(C)C(=O)Cn2nnnc2N)CCCCC1
→ -7.9 | 4
C=CCn1cc(C(=O)c2cc(C)ccc2O)cc(C#N)c1=O
→ . | -6
CCOC(=O)c1c(C=O)oc2c(C)cc(OC(=O)c3ccc(C)cc3)c(Br)c12
→ -1.6 | .
C=CCn1c(SCC(=O)OCC)nc2cc(C(=O)NCc3ccco3)ccc2c1=O
→ 0.7 | 8
O=C(NC1=NCCS1)c1ccccc1OCc1ccccc1
→ 0.5 | -16
O=C(CCCc1nc(-c2ccccc2)no1)Nc1ccccc1
→ 1.1 | -11
CN(c1ccccc1)C1(O)C(=O)c2ccccc2C1=O
→ . | 4
C=CCSc1nnc2c(n1)OC(CC)Nc1ccccc1-2 (centres undefined)
→ 6.2 | 11
COC(=O)c1ccc(S(=O)(=O)NCc2ccc(N3CCN(C)CC3)cc2)o1
→ . | 0
CC1CCCCC1NC(=O)CSc1nncs1 (centres undefined)
→ . | 19
CCOC(=O)c1oc2ccc(Br)cc2c1CSc1nnc(C)s1
→ . | -7
CCn1c(=O)sc2cccc(Cl)c21
→ 0.8 | 9
CSCCSc1nnnn1-c1ccc(O)cc1
→ . | 16
CCOC(=O)c1nc(-c2cc[n+](C)cc2)no1
→ . | -4

# An excerpt from above in order of molar mass, lowest first.
# The line under a structure holds: MgrA-DNA mod | Sa helicase inh
CCn1c(=O)sc2cccc(Cl)c21
→ 0.8 | 9
CCOC(=O)c1nc(-c2cc[n+](C)cc2)no1
→ . | -4
CN(c1ccccc1)C1(O)C(=O)c2ccccc2C1=O
→ . | 4
C=CCn1cc(C(=O)c2cc(C)ccc2O)cc(C#N)c1=O
→ . | -6
COc1ccc(C2Nc3nc4ccccc4n3C(N)=C2C#N)cc1 (centres undefined)
→ -2.5 | 9
Cc1ccccc1NC(=O)C1(N(C)C(=O)Cn2nnnc2N)CCCCC1
→ -7.9 | 4
COC(=O)c1ccc(S(=O)(=O)NCc2ccc(N3CCN(C)CC3)cc2)o1
→ . | 0

# The list goes on.
# The line under a structure holds: MgrA-DNA mod | Sa helicase inh
CCCCNc1c2c(c(C#N)c3nc4ccccc4n13)CCC2
→ 4.6 | 9
CN(C)Cc1n[nH]c(=S)o1
→ . | -5
CSC1=NCC(=O)N1CCc1c[nH]c2ccccc12
→ 5.1 | .
Cc1ccc(NC(=O)Cn2c(C(F)(F)F)nc3ccccc32)cc1
→ 0.1 | .
NC(=O)C(C(=O)/C=C/c1ccccc1)=C1SCCS1
→ . | 14
CSc1cc(-c2ccc(F)cc2)[nH]n1
→ -1.3 | .
CCOC(=O)N1CCC(NC(=O)c2ccc3nc(N4CCOCC4)sc3c2)CC1
→ . | 27
COC(=O)c1nnn(CC(=O)NC(=O)Nc2ccccc2)c1C(=O)OC
→ . | -29
Cn1cnnc1Sc1ccc(Cl)cc1N
→ . | -7
C=CCn1c(C)cc(C(=O)CSc2nc3ccccc3[nH]2)c1C
→ . | 18
COc1cccc(NC(=O)c2cc3c(=O)oc4ccccc4c3s2)c1
→ -0.3 | 6
Nc1nnc(CCc2ccccc2)s1
→ -0.2 | -2
Cc1cccc(C2C3=C(Nc4c2c(=O)[nH]c(=O)n4C)c2ccccc2C3=O)c1 (centres undefined)
→ . | 6
C[C@H]1CC2C([C@@H](O)C[C@@]3(C)C2CC[C@]3(O)C(=O)CO)[C@@]2(C)C=CC(=O)C=C12 (some centres undefined)
→ -3.1 | .
CC(=NCCc1ccccc1)C1=C(O)CSC1=O
→ . | -9

# The list continues:
# The line under a structure holds: MgrA-DNA mod | Sa helicase inh
O=C(CCc1ccccc1)NCC1COC2(CCCCC2)O1 (centres undefined)
→ . | 1
CC1CCCC(NC(=O)COC(=O)CCc2ccccc2)C1C (centres undefined)
→ -2.0 | 0
NC(=O)c1cc(-c2csc(-c3ccccn3)n2)ccc1O
→ . | -5
O=C(O)c1ccc(OCC2CCCO2)cc1 (centres undefined)
→ -1.4 | -16
CC(=O)N1CCc2ccccc2C1CNC1=CC(=O)CC(C)(C)C1 (centres undefined)
→ -1.6 | 0
CCCC(=O)Nc1sc2c(c1C(N)=O)CCC2
→ 17 | -3
O=C1CC(N(Cc2ccc3c(c2)OCO3)C(=O)Nc2ccc(F)cc2)C(=O)N1c1ccccc1 (centres undefined)
→ -0.6 | -3
CCOc1ccccc1-c1n[nH]c(=S)n1N
→ . | -1
Cc1cc(C)nc(SCC(=O)Oc2ccc3oc(=O)cc(C)c3c2)n1
→ -1.9 | -2
O=C(O)c1ccc(CN2CCCCC2)o1
→ -4.5 | -5
Cc1ccc(-c2ccccc2N)o1
→ 0.6 | .
CSC(/N=C/N(C)C)=N/N=C/c1c(F)cccc1Cl
→ -1.1 | .
CCc1[nH]c(=S)c(C#N)c(-c2ccccc2)c1C(=O)OC
→ 3.5 | 2
NS(=O)(=O)c1ccc(CCNC(=O)c2ccc3c(=O)n4c(nc3c2)CCCCC4)cc1
→ . | 8
COc1ccc2[nH]c3c(c2c1)CN(C)CC3
→ -0.4 | 9

# Additional results follow.
# The line under a structure holds: MgrA-DNA mod | Sa helicase inh
CN(C1=NS(=O)(=O)c2ccccc21)c1ccc(OC(=O)c2ccc([N+](=O)[O-])cc2)cc1
→ -0.8 | .
CCN(CC)C(=O)C1CCCN(C/C=C/c2ccccc2)C1 (centres undefined)
→ -1.6 | 10
Clc1ccc(C2CN3C(=N2)C=Cc2ccccc23)cc1 (centres undefined)
→ -2.9 | .
O=CN/N=C/c1ccc(C(=O)O)cc1
→ . | -6
COc1cccc(Nc2nc3ccccc3nc2NS(=O)(=O)c2cccs2)c1
→ . | -10
CCn1cc(C(=O)NC2CCCCCCC2)c(=O)c2cc(S(=O)(=O)N(C)C)ccc21
→ . | -13
CC(C)(C#N)NC(=O)Nc1ccccc1
→ -2.2 | 8
O=C(c1csc(-c2ccc(Cl)cc2)c1)N1CCCCC1
→ 1.5 | .
C=CCNc1nc(C(=O)OCC(=O)N(C)C2CCS(=O)(=O)C2)cs1 (centres undefined)
→ . | -2
CCOC(=O)c1c(C)oc2ccc(OCC(N)=O)cc12
→ 0.5 | -21
COCCCN1C(=S)NC2c3cccc(OC)c3OC1(C)C2C(=O)N(C)C (centres undefined)
→ . | 13
O=C(OCc1ncc(-c2ccccc2)o1)c1cc2c(s1)CCC2
→ . | 3
Nc1ncnc2nc(SCCO)[nH]c12
→ -1.6 | 4
COC(=O)c1cccc(NC(=O)c2ccccc2C(=O)O)c1
→ -2.0 | 7
